NS1 function inh – blocks influenza NS1 protein function; S. cerevisiae slowed by influenza A NS1, growth recovery by OD600; Potency, µM (top dose mostly 46.1 µM), inactives show at the top dose activity, positive = more growth; 270,000 tested, 0.4% active; active means well fitted rising curve with a large enough effect; inconclusive means small, poorly fitted or top-dose-only effect; inactive means no such curve, though single readings can be large or run the other way; further: nearly all actives have a fitted effect of over 50% in size
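Read-out: OD600 growth recovery of NS1-expressing budding yeast. Cells grown overnight at 30C in -URA glucose medium, washed, resuspended and diluted 1:100 in 2% galactose assay medium, pH 6.0. Same strain lacking NS1 served as positive control.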
Cruzain Triton – inhibitors of Trypanosoma cruzi cruzain with detergent; P25779; purified cruzain, Z-FR-AMC fluorescence, 0.01% Triton; Potency, µM, for the others: max response, negative = inhibition, actives largely listed as inhibitors; 200,000 tested, 0.43% active; AID 1478;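 further: plate controls were neutral wells for no effect and buffer without enzyme for full effect; nearly all actives have a fitted effect of over 40% in size; top concentration of the series not given in the record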
Target sequence (P25779 123-467 limits assumed): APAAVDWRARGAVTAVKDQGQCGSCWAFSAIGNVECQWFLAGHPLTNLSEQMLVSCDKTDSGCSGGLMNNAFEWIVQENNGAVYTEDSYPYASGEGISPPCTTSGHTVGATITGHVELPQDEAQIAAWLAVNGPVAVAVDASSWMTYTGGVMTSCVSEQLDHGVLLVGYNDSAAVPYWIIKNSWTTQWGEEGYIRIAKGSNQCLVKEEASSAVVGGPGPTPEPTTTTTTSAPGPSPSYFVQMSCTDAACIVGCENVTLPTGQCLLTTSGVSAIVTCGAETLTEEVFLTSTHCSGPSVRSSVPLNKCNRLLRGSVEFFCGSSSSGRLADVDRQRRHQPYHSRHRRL
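In this qHTS format, compounds are incubated with 1.5 nM cruzain for 15 min at room temperature before 2 uM Z-FR-AMC is added. Release of AMC is followed at 360/450 nm, and progress is taken as the 60 s fluorescence difference.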
MARV entry inh – inhibitors of Marburg virus binding or cell entry; Marburg virus pseudotyped entry inhibition, cell reporter; control for the full effect not named in the record; about a third of the inactives were read at about 46 µM; Potency, µM (top dose mostly 37.8 µM), for the others: top-dose activity change, negative = inhibition, usual class: inhibitors; 300,000 tested, 1.8% active; active = well fitted inhibition curve with a large enough effect; inconclusive = small, poorly fitted or top-dose-only effect, or effect the other way; inactive = flat fitted curve, though single readings scatter; tested in HEK293 cells; about a fifth of its hits are not listed in these tables; further: on the % scale 0 is the no-effect control and ±100 the full control effect; luciferase read-out
RE007 growth inh – less growth of the S. pombe RE007 Vpr strain. S. pombe RE007 Vpr strain, BacTiter-Glo ATP luminescence, 24 h; control for the full effect not named in the record. Potency, µM (titrated, usually from 92.2 µM), without a hit: at the top dose activity change, negative = less growth. 360,000 tested, 0.21% active; active = well fitted falling curve with a large enough effect; inconclusive = small, poorly fitted or top-dose-only effect; inactive = no such curve, though single readings can be large or run the other way;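 further: on the % scale 0 is the no-effect control and ±100 the full control effect; nearly all actives have a fitted effect of over 50% in size; the assay follows cell death caused by Vpr and the record does not say whether a fall means rescue or toxicity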
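Fission yeast strain RE007, carrying one chromosomally integrated HIV-1 vpr copy, was seeded at OD 0.01 in PMG+AL medium with 23 nL pinned compound. After 24 h at 30 °C and 99% humidity, viability was read by BacTiter-Glo luminescence.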
2A StopGo – lowers the luciferase signal of an FMDV 2A StopGo reporter. human cells with a luciferase reporter of 2A StopGo recoding; control for the full effect not named in the record. Potency, µM (doses to about 57.9 µM), inactives show at the top dose signal change, negative = less light. AID 1159524. 410,000 tested, 1.2% active; active = well fitted falling curve with a large enough effect; inconclusive = small, poorly fitted or top-dose-only effect; inactive = no such curve, though single readings can be large or run the other way; tested in HEK293T cells; further: on the % scale 0 is the no-effect control and ±100 the full control effect; nearly all actives have a fitted effect of over 45% in size; luciferase light after 4 h
Lassa entry inh – blocks Lassa virus binding to or entry into cells; Lassa virus pseudotype entry inhibition, cell reporter; control for the full effect not named in the record; Potency, µM (series often up to 37.9 µM), without a hit: at the highest dose activity change, negative = inhibition, most hits filed as inhibitors; 300,000 tested, 1.2% active; active means well fitted inhibition curve with a large enough effect; inconclusive means small, poorly fitted or top-dose-only effect, or effect the other way; inactive means flat fitted curve, though single readings scatter; tested in HEK293 cells; further: on the % scale 0 is the no-effect control and ±100 the full control effect; nearly all actives have a fitted effect of over 50% in size; luciferase read-out
Cruzain inh noDet – blocks cruzain activity in detergent-free assay; Potency, µM, for inactives: max response, negative = inhibition, actives largely listed as inhibitors; 200,000 tested, 2.3% active; AID 1476; purified cruzain, Z-FR-AMC fluorescence, no detergent;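 further: plate controls were enzyme without inhibitor for no effect and buffer without enzyme for full effect; nearly all actives have a fitted effect of over 40% in size; top concentration of the series not given in the record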
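Purified cruzain at 1.5 nM, pre-incubated 15 min with compound at room temperature in 100 mM sodium acetate pH 5.5, 5 mM DTT, 0.00005% Triton X-100. Reaction started with 2 uM Z-FR-AMC; AMC fluorescence increase over 60 s gives rate.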
SARS PLP yeast – inhibitors of SARS-CoV papain-like protease in yeast | Potency, µM (titrated, usually from 32.9 µM), for inactives: at the top dose activity, positive = growth rescue | AID 485353 | S. cerevisiae expressing SARS-CoV PLpro, growth rescue; control for the full effect not named in the record | 330,000 tested, 0.19% active; active means well fitted rising curve with a large enough effect; inconclusive means small, poorly fitted or top-dose-only effect; inactive means no such curve, though single readings can be large or run the other way; further: 0% is about no effect; nearly all actives have a fitted effect of over 55% in size; growth read by luminescence after 48 h
The depositor's hits bear a star; ? = inconclusive; . = no result given; [ ] = another dose, or the depositor's remark. Unless noted, the call rests on the fitted dose curve; in most records, active means well fitted curve in the direction sought with a large enough effect; inconclusive means small, poorly fitted or top-dose-only effect, or another doubt; inactive means no such curve, though single readings can be large; an effect the other way counts as inactive or inconclusive. Potency means the concentration at half of the fitted maximal effect.

The line under a structure holds: NS1 function inh, Cruzain Triton, MARV entry inh, RE007 growth inh, 2A StopGo, Lassa entry inh, Cruzain inh noDet, SARS PLP yeast
O=C1CC(Sc2ncccn2)C(=O)N1c1ccccc1 (stereo not drawn)
  10%, 1.2%, -12%, -11%, -13%, 15%, -1%, 6%
CN1C(=O)NC(=O)/C(=C/c2ccc([N+](=O)[O-])o2)C1=O
  2%, ., ?, -28%, ?, ?, ., 1%
Cc1ccc(C(CNS(=O)(=O)c2ccc(F)cc2C)N2CCN(C)CC2)cc1 (stereo not drawn)
  ., ., ?, 1%, -16%, ?, ., 1%
Cc1ccc2onc(CNC(=O)NCc3ccc(Cl)cc3)c2c1
  ., -0.4%, ., ., -10%, -3%[46.1 µM], 10%, .
O=c1cc(N=Nc2ccc(Cl)cc2)[nH]c(=O)[nH]1
  -66%, ., 5%[46.1 µM], -25%, 25µM*, ., ., -8%
COc1cccc(C(=O)C2CCCN(C(=O)CCC3=NNC(=O)CC3)C2)c1 (stereo not drawn)
  0%, ., ., -4%, 29%, ., ., -1%
COC(=O)C1=C(N)Oc2c(oc(CO)cc2=O)C1c1c(F)cccc1Cl (stereo not drawn)
  ., ., 1%[46.1 µM], 6%, -12%, ., ., 4%
CN(Cc1ccccc1)C(=O)COc1cc(=O)n(C)c2ccccc12
  -5%, 1.5%, -16%[46.1 µM], -14%, 38%[activator], 6%, 3%, 0%
C/C(=N/NC(=O)CNC(=O)Cc1ccccc1)c1ccc(Cl)cc1
  2%, ., 5%[46.1 µM], -3%, -8%, 0%[46.1 µM], ., 1%
O=C(CN(Cc1ccccc1)S(=O)(=O)c1ccc(F)cc1)NCCC1=CCCCC1
  -47%, -6.0%, ?, 15%, ?, -22%, 6%, -12%
Cc1ccc(S(=O)(=O)N2CCC(C(=O)N/N=C/c3cccnc3)CC2)cc1
  -4%, 0.9%, ?, -10%, 6%, 1%, 5%, 8%
COCCCN1C(=O)c2ccc(C(=O)N3CCN(c4ccc(OC)cc4)CC3)cc2C1=O
  -1%, ., -2%[46.1 µM], 0%, -4%, -13%[46.1 µM], ., 0%
COc1cccc(-n2c(=O)c3c(C)c(C(=O)N(C)C)sc3n(CC(=O)NCC3CCCO3)c2=O)c1 (stereo not drawn)
  ., ., -11%[46.1 µM], 11%, -6%, 18%, ., -5%
O=C(N/N=C/c1ccc(F)cc1)c1cc(-c2ccc3c(c2)OCO3)n[nH]1
  5%, ., 1%[46.1 µM], 13%, -6%, 8.9µM*, ., -1%
O=C(Nc1ccccc1O)c1ccc2c(c1)C(=O)N(Cc1ccco1)C2=O
  16%, ., ., -1%, 15%, ., ., 8%
C1CCN=C(NC23CC4CC(CC(C4)C2)C3)CC1
  -8%, 0.4%, ?, ., ., 5%, -2%, 27%
O=C(N/N=C\c1c(F)c(F)c(F)c(F)c1F)c1ccc(-c2ccccc2)cc1
  9%, ., 10%, 8%, 8%, 6%, ., -7%
Cc1ccccc1NC(=O)Cn1cccc1
  0%, 3.8%, 26%, -3%, -16%, -3%, -8%, 3%
CC(=O)c1ccc(NC(=S)N(C)C2CCN(C)CC2)cc1
  11%, -3.8%, -4%, 24%, 3%, 2%, -11%, 0%
COC(=O)c1ccc(N2C(=O)CC(N3CCOCC3)C2=O)cc1 (stereo not drawn)
  -156%, -0.8%, 0%, 28µM*, -4%, 3%, 3%, -24%
Cc1ccc(/C=N/NC(=O)c2c[nH]c3ccccc23)s1
  -22%, -3.2%, ?, 8%, 51%[activator], -18%, -1%, 1%
Cc1ccc(CNCC(=O)Nc2ccc(C)cc2Br)cc1
  ., ., -5%, 2%, 18%, -11%, ., 1%
O=C(O)c1cc(NCc2ccccc2)ccc1N1CCOCC1
  2%, 4.9%, 1%, -5%, -11%, 3%, -6%, -6%
COc1ccc(S(=O)(=O)Nc2cc3c(cc2NCc2ccccc2)n(C)c(=O)n3C)cc1OC
  ., -7.0%, 22%[46.1 µM], ., 24%, 13%[46.1 µM], ?, .
Cc1nn(C)cc1/C=N/NC(=O)c1ccco1
  -4%, ., ?, 6%, 28%, 23%[46.1 µM], ., 0%
Cc1nc(-n2nc(C)c(Cc3ccccc3Cl)c2C)sc1C(=O)N1CCC(C)CC1
  ., -0.7%, 3%[46.1 µM], ., -23%, -1%[46.1 µM], 1%, .
CN(C1CCS(=O)(=O)C1)S(=O)(=O)c1ccccc1 (stereo not drawn)
  6%, ., 3%, -3%, 2%, 0%, ., 1%
COc1c(C)cc(S(=O)(=O)NCCN2CCOCC2)c(C)c1C
  9%, ., 4%[46.1 µM], -12%, 63%[activator], -16%[46.1 µM], ., 2%
COc1cc(C(=O)Nc2ccc3c(c2)C(=O)N(CCC(=O)O)C3=O)cc(OC)c1OC
  -8%, -3.4%, -13%, 2%, -7%, -12%, -16%, -4%
COc1ccc(CCNCc2ccc(Br)cc2)cc1OC
  -2%, ., ., -7%, -11%, ., ., -2%

Next part
The line under a structure holds: NS1 function inh, Cruzain Triton, MARV entry inh, RE007 growth inh, 2A StopGo, Lassa entry inh, Cruzain inh noDet, SARS PLP yeast
Cc1ccccc1C(=O)c1c[nH]c(C(=O)NCCc2ccccn2)c1
  ., ., 14%[46.1 µM], 1%, 10%, -1%, ., -3%
CCOC(=O)C1(Cc2ccccc2)CCN(Cc2cnn(C(C)C)c2)CC1
  -5%, ., 24%[46.1 µM], -8%, -3%, 22%, ., 3%
Cc1ccc(NC(=O)CSc2nnnn2-c2cccnc2)c(C)c1
  3%, ., -13%[46.1 µM], 4%, 2%, -7%[46.1 µM], ., 1%
COc1ccc(C(=O)C2CCCN(C(=O)C3=CCCC3)C2)c(C)c1 (stereo not drawn)
  -2%, ., ., 18%, 0%, ., ., -3%
Nc1ccccc1S(=O)(=O)C(F)F
  4%, ., ., -4%, 6%, ., ., -4%
O=C(NC1CCCCC1)c1ccc(CS(=O)Cc2ccccc2Cl)o1 (stereo not drawn)
  -6%, ., ., -6%, 17%, ., ., 0%
Cc1cc(C)n2ncc(C(=O)NCc3cccnc3)c2n1
  -3%, -0.7%, 3%, 12%, 0%, -3%, 8%, 3%
CCOC(=O)C1(Cc2cccc(OC)c2)CCN(Cc2cnc(C)s2)CC1
  4%, ., -23%[46.1 µM], -10%, ?, -28%, ., -1%
O=C1C2C3C=CC(C3=C(c3ccccc3)c3ccccc3)C2C(=O)N1Cc1ccccc1 (stereo not drawn)
  15%, 2.6%, ?, ?, ?, ?, 20µM*, -41%
Cc1cc(C)n(C2CC(=O)N(c3cc(Cl)cc(Cl)c3)C2=O)n1 (stereo not drawn)
  4%, ., ., 8%, -3%, ., ., 0%
COc1ccc(Cl)cc1N(CC(=O)NCCSc1ccccn1)S(=O)(=O)c1ccccc1
  5%, ., -23%[46.1 µM], -5%, 4%, ?, ., -6%
CCCCC1C(=O)NC(=S)NC1=O
  -1%, -3.3%, ., ., ., ., 1%, -7%
COC(=O)C1=C(C)NC(=S)NC1c1ccco1 (stereo not drawn)
  ., ., 1%[46.1 µM], 6%, 2%, 13%, ., -2%
COc1c(C)cc(S(=O)(=O)NC2CC(C)(C)NC(C)(C)C2)c(C)c1C
  -23%, -1.4%, -5%, 5%, 15%, -29%, -8%, ?
CCn1c(=O)n(CC(=O)N(C)Cc2ccccc2)c(=O)c2ccccc21
  0%, 5.1%, ?, 40%, -19%, 4%, 2%, 5%
Fc1ccccc1/C=C/c1ccc2ccccc2n1
  -15%, -9.6%, ?, ?, 10µM*, 2.5µM*, -5%, -43%
COCCOc1cc(N)c(Cl)cc1Cl
  ., ., 23%[46.1 µM], -7%, 6%, -2%, ., 0%
COc1ccc(/C=N/NC(=O)c2ccc(Cn3cc([N+](=O)[O-])cn3)o2)cc1O
  14%, -6.1%, 6%[46.1 µM], 7%, 13%, 27%, -21%, -2%
Cc1cccc(C(=O)NCc2nnc(SC(C)C(=O)Nc3nnc(C)s3)n2C)c1 (stereo not drawn)
  ., ., -14%, 31%, -26%, 9%, ., 1%
O=C(NC1CCCC1)C(c1ccncc1)N(C(=O)c1csnn1)C1CCCC1 (stereo not drawn)
  -6%, ., ?, -9%, 9%, 8%[46.1 µM], ., 1%
O=C(NCc1ccc2c(c1)OCO2)C1CCN(S(=O)(=O)c2cccs2)CC1
  -7%, 0.1%, 0%, 1%, 3%, -2%, 18%, 5%
Cc1ccc(S(=O)(=O)c2nnn3c2nc(NC2CCCCCC2)c2sccc23)cc1C
  ., -2.4%, ., ., 0%, -22%[46.1 µM], -1%, .
CCc1ccccc1NC(=O)CSc1nnc(-c2nonc2NC(C)=O)n1C
  ., -1.3%, 10%[46.1 µM], ., -5%, 0%[46.1 µM], 2%, .
O=C(Nc1ccc(Cl)c(S(=O)(=O)N2CCOCC2)c1)[C@@H]1CCCN1C(=O)c1cccs1
  ., ., 12%, 25%, -15%, 20%, ., -8%
O=C(CN(Cc1ccccc1)S(=O)(=O)c1ccc(Cl)cc1)NCC1CCCO1 (stereo not drawn)
  -7%, ., 1%[46.1 µM], 6%, 15%, -19%, ., 1%
COc1ccc(CNc2nn[nH]n2)cc1OC
  7%, 3.9%, 18%, -2%, ., -11%, 4%, 8%
Clc1cccc(CN2CCN(Cc3nc(CCc4ccccc4)no3)CC2)c1
  -4%, ., 10%[46.1 µM], -10%, -4%, 22%[46.1 µM], ., 0%
Cc1ccc(-c2n[nH]c(=S)n2Cc2ccccc2)cc1
  -3%, -1.3%, -1%, -5%, -4%, 1%, 2%, 4%
CN(C(=O)c1cc(S(=O)(=O)N2CCc3ccccc32)cn1C)C1CCCCC1
  -4%, ., ., 8%, -1%, ., ., 4%
Cc1nc(CC(=O)Nc2cccc(C)c2C)cs1
  ., 0.4%, 12%[46.1 µM], ., -17%, 9%[46.1 µM], -8%, .
COc1ccccc1NC(=O)c1c(Nc2ccccc2F)sc(C(=O)Nc2cccc(Cl)c2)c1N
  ?, -0.8%, -24%, 19%, ?, ?, -22%, 15%
CCOC(=O)C1CCN(c2nc3c(S(=O)(=O)c4ccccc4)nnn3c3ccc(Cl)cc23)CC1
  ., -3.6%, -2%[46.1 µM], ., 5%, ., 0%, .

Compound activity from PubChem.
